Mtb H37Rv: M. tuberculosis H37Rv growth inhibitors, H37Rv strain (AID 1626). 0.95% of 220,000 active. inhibition, % at 10 µM; hits with a dose series show IC50 in µM. M. tuberculosis H37Rv growth inhibition; higher % means a stronger effect;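 active = confirmed in a dose series; inconclusive = inhibition above 80% but not taken into the dose series; inactive = below 80% or under 30% at every dose of the series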;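 note: bacteria incubated seven days before Alamar blue readout; 0% = bacteria only wells and 100% = bacteria with antibiotic wells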
YopH inh: blocks Yersinia enterocolitica YopH tyrosine phosphatase; fluorescence Ex485/Em525; AID 898; 0.16% of 140,000 active; inhibition, %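 (about 10 µM by stock and volumes)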;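 active = inhibition of 50% or more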;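 note: controls were vehicle for no effect and minimum signal wells for full effect; inactives centre near -20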
Arbovirus inh: blocks arbovirus infection | arbovirus infection cell-based antiviral screen | inhibition, % at 10 µM | 0.37% of 200,000 active | AID 1251;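 active = inhibition from about 30%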;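 note: bluetongue infection of BSR cells; cell survival read as ATP light after 72 h; 0% = infected wells without compound and 100% = uninfected wells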
Mtb betalactam: beta-lactam sensitization of Mtb H37Rv | AID 434955 | M. tuberculosis H37Rv growth with meropenem, percent inhibition; hits of this screen are not shown here | inhibition, % at 25 µM | 0.27% of 330,000 active;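 active = about 74% or more and at least 40 points above the plate without the antibiotic, then above 30% in a dose series; inconclusive = first-round hits that could not be retested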;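 note: growth measured after seven days incubation then overnight dye step; 0% = bacteria only wells and 100% = bacteria with antibiotic; twin plates without the antibiotic show which effects depend on it; some results filed as inactive read as strong as hits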
RecA splice inh: Mtb RecA intein splicing inhibition; P9WHJ3; cell-free RecA intein splicing, fluorescence; inhibition, %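 (about 9 µM by stock and volumes)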; 0.75% of 290,000 active; AID 2221; in the data active = inhibition above about 30%; inconclusive = no clear call, values can overlap the other calls;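 note: 0% = vehicle wells and 100% = reference inhibitor control wells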
Target sequence (P9WHJ3 whole entry, looked up, canonical isoform): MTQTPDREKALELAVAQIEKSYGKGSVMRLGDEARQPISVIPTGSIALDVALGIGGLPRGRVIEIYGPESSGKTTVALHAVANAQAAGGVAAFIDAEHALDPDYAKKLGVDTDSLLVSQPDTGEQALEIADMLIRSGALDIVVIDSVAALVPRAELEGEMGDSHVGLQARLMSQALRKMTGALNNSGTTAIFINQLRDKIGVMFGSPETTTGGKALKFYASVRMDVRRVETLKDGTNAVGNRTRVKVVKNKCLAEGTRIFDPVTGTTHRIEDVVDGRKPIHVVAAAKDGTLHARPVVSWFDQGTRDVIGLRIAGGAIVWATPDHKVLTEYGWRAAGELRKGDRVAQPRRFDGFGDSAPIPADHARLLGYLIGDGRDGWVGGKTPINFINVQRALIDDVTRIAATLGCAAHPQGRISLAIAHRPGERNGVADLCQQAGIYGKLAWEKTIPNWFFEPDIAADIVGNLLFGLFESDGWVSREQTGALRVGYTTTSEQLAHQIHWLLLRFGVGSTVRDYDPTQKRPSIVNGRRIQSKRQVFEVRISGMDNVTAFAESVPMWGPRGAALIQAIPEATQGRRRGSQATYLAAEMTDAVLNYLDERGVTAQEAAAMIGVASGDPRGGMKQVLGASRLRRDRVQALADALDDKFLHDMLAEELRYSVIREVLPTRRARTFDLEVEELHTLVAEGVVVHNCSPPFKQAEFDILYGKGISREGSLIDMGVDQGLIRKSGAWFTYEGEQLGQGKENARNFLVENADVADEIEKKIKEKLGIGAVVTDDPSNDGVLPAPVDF
Arbovirus inh repeat: further read-out of Arbovirus inh, marked with its call; inhibition, %; measured here: 10K subset replicate screen; many hits read low in the repeat;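 first of two repeat runs on a subset; 0% = infected and 100% = uninfected wells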
* hit, by the source's call; ? = inconclusive; · = no result given.

Start of the data: the first 3 entries, ahead of the listing:
SMILES | Mtb H37Rv | YopH inh | Arbovirus inh | Mtb betalactam | RecA splice inh | others
CC(=O)N(/N=C/c1ccc(C)cc1)c1nc(CCl)cs1 | · | · | · | -2.5 | 5.0
COc1ccc(S(=O)(=O)N2CCN(C(=O)c3cc(C)oc3C)CC2)cc1 | -7.3% | · | 8.7 | -3.7 | -0.2
CCN1C(=O)[C@H]2[C@@H](c3ccc(-c4ccc(OC)cc4)cc3)N[C@@](CC(C)C)(C(=O)OC)[C@H]2C1=O | · | · | · | -6.8 | 15.8

Main list (from the top)
SMILES | Mtb H37Rv | YopH inh | Arbovirus inh | Mtb betalactam | RecA splice inh | others
CC(=O)N(/N=C/c1ccc(C)cc1)c1nc(CCl)cs1 | · | · | · | -2.5 | 5.0
COc1ccc(S(=O)(=O)N2CCN(C(=O)c3cc(C)oc3C)CC2)cc1 | -7.3% | · | 8.7 | -3.7 | -0.2
CCN1C(=O)[C@H]2[C@@H](c3ccc(-c4ccc(OC)cc4)cc3)N[C@@](CC(C)C)(C(=O)OC)[C@H]2C1=O | · | · | · | -6.8 | 15.8
CCCn1c(N)[n+](CC(=O)c2ccco2)c2ccccc21 | -4.4% | 9.1 | -10.6 | 4.1 | 2.4
CCOC(=O)C(Sc1n[nH]c(N)n1)c1ccccc1 (stereo not given) | -2.5% | -24.6 | 5.8 | -3.1 | -1.4
COc1cc2c(cc1OC)C(C)=NCC2 | -3.8% | · | 2.1 | -3.3 | -0.8 | Arbovirus inh repeat=1.4
CCN1CCN(c2ncnc3scc(-c4ccc(C)cc4)c23)CC1 | · | · | · | -18.0 | -1.3
CCCCOC(=O)Nc1ccc(S(=O)(=O)Nc2cc(C)nc(C)n2)cc1 | 14.0% | -36.9 | -0.3 | 69.0 | -0.6 | Arbovirus inh repeat=9.3
CNC(=S)N1N=C(c2ccc(OC)cc2)CC1c1ccccc1Cl (stereo not given) | 8.0% | · | · | -9.4 | 4.3
COc1ccc(N2CCN(C3CCCN(Cc4ccc(F)cc4)C3)CC2)cc1 (stereo not given) | · | · | · | -2.3 | -1.8
CC1CCCCN1S(=O)(=O)c1ccc(S(=O)(=O)N2CCN(C)CC2)cc1 (stereo not given) | · | · | · | -10.5 | 0.3
N=c1c(-c2nc3ccccc3[nH]2)cc(C(=O)c2cccs2)nn1-c1ccc(Cl)cc1 | 7.7% | 35.4 | · | 26.8 | -21.5

The list goes on; it opens with the 3 that closed the last part.
SMILES | Mtb H37Rv | YopH inh | Arbovirus inh | Mtb betalactam | RecA splice inh | others
COc1ccc(N2CCN(C3CCCN(Cc4ccc(F)cc4)C3)CC2)cc1 (stereo not given) | · | · | · | -2.3 | -1.8
CC1CCCCN1S(=O)(=O)c1ccc(S(=O)(=O)N2CCN(C)CC2)cc1 (stereo not given) | · | · | · | -10.5 | 0.3
N=c1c(-c2nc3ccccc3[nH]2)cc(C(=O)c2cccs2)nn1-c1ccc(Cl)cc1 | 7.7% | 35.4 | · | 26.8 | -21.5
Cc1onc(-c2c(Cl)cccc2Cl)c1C(=O)O/N=C(\C#N)c1c(Cl)cccc1Cl | -2.1% | · | · | 1.1 | 0.1
COc1cccc(CCNc2ccc(N3C(=O)CC(C)C3=O)cc2[N+](=O)[O-])c1 (stereo not given) | -1.6% | · | -3.4 | -7.2 | -1.3
O=C(/C=C/c1ccccc1Cl)NCc1ccco1 | 5.4% | -44.2 | -8.1 | 42.2 | -0.1
Fc1ccc(CN2CCN(c3ncnc4scc(-c5ccc(F)cc5)c34)CC2)cc1 | · | · | · | 68.6 | 19.1
CC(/C=C/c1ccccc1)=N\NC(=O)c1ccc(Br)cc1 | ? | · | -3.1 | 74.3 | 0.5
Cc1sc2nc(CSC(C)C(=O)Nc3ccc(C#N)cc3)[nH]c(=O)c2c1C (stereo not given) | · | · | · | -1.0 | 1.7
CC12CCC(c3c(CO)nn(-c4ccccc4)c31)C2(C)C (stereo not given) | -3.0% | -10.3 | 13.3 | -20.2 | 0.0
CCN(CC)CCN(C(=O)c1cc2ccccc2cc1OC)c1nc2ccc(F)cc2s1 | · | · | · | 67.6 | 14.8
CC12CCC(C(=O)Nc3cccc(Cl)c3)(C(Br)C1=O)C2(C)C (stereo not given) | 0.1% | -18.4 | 13.9 | 2.7 | -2.4
CC(C)(C)[C@@H]1C=C(C(=O)O)O[C@H](OCCCCO)C1 | -7.3% | · | · | -5.0 | -0.1
CCN(C(=O)c1cc2c(=O)n3cccc(C)c3nc2n1CCCOC)C1CCCCC1 | · | · | · | 2.4 | -29.7
COc1cc(/C=C2\SC(=O)N(Cc3ccc(Cl)cc3)C2=O)cc([N+](=O)[O-])c1O | 9.8% | · | 10.4 | · | ·
NS(=O)(=O)c1ccc(CCNC(=O)CSc2ccc(Cl)cc2)cc1 | -0.4% | -31.4 | 1.2 | -0.5 | -0.4
CCOc1cc(C2NC(=O)NC(C)=C2C(C)=O)cc(Cl)c1OCC(=O)O (stereo not given) | -11.6% | 7.4 | -3.4 | 6.7 | 5.1
Cc1cc(=O)n2nc(N3CCCC(C(=O)NCCCN4CC(C)CC(C)C4)C3)sc2n1 (stereo not given) | · | · | · | -2.3 | -2.6
CC(C)CC(=O)Nc1ccc(Oc2ccc3c(c2)C(=O)NC3=O)cc1 | · | · | · | -17.9 | 0.5
Cc1c(O)ccc(NC(=O)/C=C/c2ccccc2)c1C | -3.7% | · | -12.7 | -2.5 | ·
CC1CCN(c2ccccc2NC(=O)c2cc([N+](=O)[O-])ccc2N2CCOCC2)CC1 | · | · | · | 9.2 | 13.7
Cc1ccc2[nH]c(=O)cc(C(=O)OCC(=O)c3ccc(F)cc3)c2c1 | 0.1% | · | -3.4 | -0.3 | -5.8
CCCCCC(=O)NC(=S)Nc1ccccc1C(=O)OC | -4.2% | -18.9 | 0.9 | ? | 3.5
CC(=O)OC[C@H]1O[C@@H](O/N=C(\C)CCN2CCCCc3nc(C)c(C)cc32)[C@H](OC(C)=O)[C@@H](OC(C)=O)[C@@H]1OC(C)=O | · | -26.5 | 7.2 | -8.8 | -3.2
Cc1cc(=O)n2nc(N3CCCC(C(=O)N4CCN(c5ccccc5)CC4)C3)sc2n1 (stereo not given) | -5.8% | -32.8 | -1.4 | -2.9 | -1.2
CCc1nc(SCC(=O)Nc2cc(C)on2)n[nH]1 | -4.3% | -42.0 | 0.3 | -0.8 | -1.5
c1cnc2ccc(C(c3nnnn3C3CCCCC3)N3CCCCC3)cc2c1 (stereo not given) | 1.5% | -9.4 | -12.4 | -3.4 | -1.4
O=C(Oc1cccc(C(=S)N2CCCCC2)c1)c1ccccc1 | 47.1% | · | 4.4 | -0.8 | -0.8
O=C(c1ccco1)N(Cc1cc2ccccc2[nH]c1=O)CC1CCCO1 (stereo not given) | -1.7% | 1.6 | -2.0 | -16.9 | -1.6
CC(N)Cc1c[nH]c2ccc(Cl)cc12 (stereo not given) | -6.2% | -22.5 | · | -0.8 | ·
Cc1ccc(-n2cc(CN3CCN(Cc4nccn4C)CC3)c(-c3ccc(F)cc3)n2)cc1 | 35.6% | · | -18.1 | 59.9 | 3.9
Cn1c(=O)cc(SCC(=O)NCCCN2CCN(c3ccc(F)cc3)CC2)c2ccccc21 | -6.5% | -7.1 | -4.1 | -3.7 | 4.2
COCCCNc1nc2ccccc2nc1NS(=O)(=O)c1cccs1 | -8.6% | -56.9 | 6.2 | -2.2 | -3.6
O=C(COc1ccc(C(=O)c2ccccc2)cc1)NCc1ccc(F)cc1 | 9.1% | -17.2 | 0.2 | 6.4 | -5.6
CC(NC(=O)c1ccccc1Br)c1nnc(SCc2ccc([N+](=O)[O-])cc2)n1C (stereo not given) | -7.3% | 2.7 | 3.0 | -4.5 | 2.1
O=c1cc(-c2ccccc2)[nH]c2[nH]n(-c3ccccc3)c(=O)c12 | 2.0% | -40.2 | -13.2 | 4.7 | -0.3
Cc1ccc(S(=O)(=O)/N=C(\N)c2ccc(F)cc2)cc1 | 2.6% | · | -3.7 | 1.9 | -0.5
CCOc1ccccc1/C=N/NC(=O)c1cccc(Cl)c1 | -3.6% | -10.8 | -4.0 | -0.7 | 0.5
COc1ccc(CCNCC(O)Cn2ccc3ccccc32)cc1OC (stereo not given) | -9.7% | · | · | -9.3 | 3.2
CCNc1sc(C(=O)OCC)c(N)c1C#N | 3.1% | · | -5.2 | -1.9 | -2.2
COCCn1c(-c2ccc3ccccc3c2)nc2c1c(=O)[nH]c(=O)n2CC(C)C | · | · | · | 15.5 | -1.4
CC1CCN(S(=O)(=O)c2cccc(S(=O)(=O)N3CCOCC3)c2)CC1 | -8.9% | 16.0 | 6.8 | 8.0 | 0.2
CC(=O)NC(CCS(C)(=O)=O)C(=O)Nc1cc(Cl)ccc1Cl (stereo not given) | 4.8% | -18.9 | -3.4 | -4.8 | -0.5 | Arbovirus inh repeat=1.5
CN(C)c1nc2c(c(=O)n(C)c(=O)n2C)n1Cc1ccccc1 | 3.8% | -56.9 | 2.2 | -0.7 | 0.8
CCOc1ccc(Nc2nc(Cl)nc(N3CCN(c4ccc(OC)cc4)CC3)n2)cc1 | ? | 14.0 | 9.2 | 95.2 | 2.6
Nc1ccc(Br)cc1C(=O)O | -3.8% | -15.7 | 2.7 | -1.6 | -0.4
COC(=O)c1c(C)n(Cc2ccc3c(c2)OCO3)c2ccc(O)cc12 | 0.0% | -30.5 | 15.8 | 1.2 | 6.7
O=C(NCc1ccco1)C(c1ccccc1)N(Cc1ccccc1)C(=O)Cn1nnc2ccccc21 (stereo not given) | 4.9% | -16.3 | 3.6 | -14.4 | -5.4
Cn1nccc1NC(=O)CSCC(=O)O | -8.3% | · | · | -4.4 | 1.1
CCOc1ccc(C2C(C#N)=C(N)Oc3cc(C)n(CCN4CCOCC4)c(=O)c32)cc1OCC (stereo not given) | -2.5% | -11.7 | 0.8 | · | ·
COc1cc2c(cc1OC)C(c1ccccc1)N(C(=O)c1cccc(S(C)(=O)=O)c1)CC2 (stereo not given) | · | · | · | 0.0 | 1.3

A draw from above in order of length of the SMILES, high to low.
SMILES | Mtb H37Rv | YopH inh | Arbovirus inh | Mtb betalactam | RecA splice inh | others
COc1cc(/C=C2\SC(=O)N(Cc3ccc(Cl)cc3)C2=O)cc([N+](=O)[O-])c1O | 9.8% | · | 10.4 | · | ·
COc1ccc(S(=O)(=O)N2CCN(C(=O)c3cc(C)oc3C)CC2)cc1 | -7.3% | · | 8.7 | -3.7 | -0.2
CC12CCC(c3c(CO)nn(-c4ccccc4)c31)C2(C)C (stereo not given) | -3.0% | -10.3 | 13.3 | -20.2 | 0.0

(next part)
SMILES | Mtb H37Rv | YopH inh | Arbovirus inh | Mtb betalactam | RecA splice inh | others
COc1ccc(CNC(=O)COC(=O)C2CC2C)cc1OC (stereo not given) | · | · | · | 2.2 | -2.5
CC(=O)c1cccc(NS(=O)(=O)c2cc(-c3cnc(C4CC4)o3)ccc2C)c1 | · | · | · | -3.0 | -0.6
CC1CC(C)CN(c2nc3c(c(=O)n(C)c(=O)n3C)n2CCSc2ncccn2)C1 (stereo not given) | -1.7% | -41.3 | 8.7 | 6.9 | 1.5
O=C(Nc1nnc(SCC(=O)N2CCOCC2)s1)C1CC(=O)N(c2ccccc2)C1 (stereo not given) | · | · | · | -1.9 | 3.3
O=C(/C=C/Nc1ccccc1)c1ccccc1 | · | -34.9 | -1.6 | -3.0 | 1.3
CCOc1cc(NC(=O)C2CCCO2)c(OCC)cc1NC(=O)C1CC1 (stereo not given) | 4.2% | -52.3 | 1.9 | 8.4 | -1.4
Cn1c(=O)[nH]c(=O)c2c1nc(N1CCCC1)n2CCSc1nc2ccccc2[nH]1 | -15.4% | -2.1 | 9.9 | · | ·
c1ccc2c(Nc3nc(N4CCOCC4)c4ccccc4n3)cccc2c1 | 14.4% | -0.7 | -6.6 | 67.7 | 12.1
Cc1ccc(S(=O)(=O)Nc2ccc(C(OC(=O)c3ccccc3[N+](=O)[O-])(C(F)(F)F)C(F)(F)F)cc2)cc1 | 7.5% | -35.6 | -35.3 | -0.4 | 1.3
CCN(CC)c1ccc(C=Nc2cc(C)cc(C)c2)c(O)c1 | 5.6% | -28.4 | 3.5 | -0.9 | -3.1
Cc1nn(-c2ccccc2)c(Cl)c1/C=N/NC(=O)c1ccnn1C | · | · | · | ? | 2.0
Cc1ccc(N2C(=O)c3ccccc3C2Nc2ccccc2)nc1 (stereo not given) | 15.8% | -58.1 | -6.8 | 10.5 | -3.2
COc1ccc(CNC(=O)CN(C2CCCCC2)S(C)(=O)=O)cc1 | -1.9% | -29.9 | -0.9 | -2.9 | -1.0

Assay outcomes from PubChem BioAssay.

Not all compounds are listed; rates above refer to the full screens.
